# StopGo reporter – lowers the luciferase signal of an FMDV 2A StopGo reporter | human cells with a luciferase reporter of 2A StopGo recoding; control for the full effect not named in the record | Potency, µM (doses to about 57.9 µM), for the others: at the highest dose signal change, negative = less light | 410,000 tested, 1.2% active | AID 1159524; active = well fitted falling curve with a large enough effect; inconclusive = small, poorly fitted or top-dose-only effect; inactive = no such curve, though single readings can be large or run the other way; tested in HEK293T cells; note: nearly all actives have a fitted effect of over 45% in size; luciferase light after 4 h
# RE007 growth inh – less growth of the S. pombe RE007 Vpr strain; S. pombe RE007 Vpr strain, BacTiter-Glo ATP luminescence, 24 h; control for the full effect not named in the record; Potency, µM (top dose mostly 92.2 µM), inactives show at the top dose activity change, negative = less growth; 360,000 tested, 0.21% active; active = well fitted falling curve with a large enough effect; inconclusive = small, poorly fitted or top-dose-only effect; inactive = no such curve, though single readings can be large or run the other way;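 note: nearly all actives have a fitted effect of over 50% in size; the assay follows cell death caused by Vpr and the record does not say whether a fall means rescue or toxicity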
#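 Fission yeast strain RE007, carrying one chromosomally integrated HIV-1 vpr copy, was seeded at OD 0.01 in PMG+AL medium with 23 nL pinned compound. After 24 h at 30 °C and 99% humidity, viability was read by BacTiter-Glo luminescence.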
# * hit, by the source's call; ? = inconclusive; & = joins results of further samples; [ ] = dose if it differs, or a comment. % is set by controls: 0 for no effect and ±100 for the full control effect; potency is the fitted concentration of half-maximal effect. A portion of the library; count on the stated rates, not on these rows.
# Results follow in this order: StopGo reporter, RE007 growth inh
COc1cccc(CNc2nc3cc(-c4ccccc4)sc3c(=O)n2C)c1OC
  0%, 0%
Cc1ncccc1C(=O)N1CCCC(c2cc(C(=O)Nc3ccc(C(C)(C)C)cc3)no2)C1 (stereo not drawn)
  0%, 9%
CNc1cncc(-c2ccc(CN3CCOCC3)cc2)n1
  47%[activator], 1%
Cc1cc(C)cc(C(O)c2ncc(-c3cccc(C(F)(F)F)c3)[nH]2)c1 (stereo not drawn)
  17%, 6%
CCc1nc2ccc(C(=O)NCc3ccc(OC)cc3)cn2c1N(C)Cc1ccc(OC)cc1
  0%, -25%
CSc1ccc(Cn2c(C)c(C(=O)NCc3ccccc3C(F)(F)F)sc2=O)cc1
  -17%, -19%[18.4 µM]
Cc1ccc(S(=O)(=O)N2CCN(C(=O)COC(=O)c3nc(Cl)ccc3Cl)CC2)c(C)c1
  -10%, 23%
COc1ccccc1C(=O)NCCN1CCCC1
  0%, -4%
Cc1cc2nc(C3CCCCC3)c(Cc3cccc(F)c3)n2c(C)c1Br
  -12%, 0%
CCOC(=O)C1=CCN(S(=O)(=O)c2cccc(Cl)c2)C1c1cccc(C)c1 (stereo not drawn)
  -21%, -18%
CCOc1ccccc1NC(=O)c1ccc2c(O)c(S(=O)(=O)c3ccccc3)c(=O)[nH]c2c1
  -22%, 15%
CC(=O)NC(C)(c1ccccc1)c1nc(-c2cccc(C#N)c2)cs1 (stereo not drawn)
  -4%, 1%
OC(c1ccccc1)(c1nc(-c2ccc(Cl)cc2)cs1)C(F)(F)F (stereo not drawn)
  -13%, ?
Nc1ncc(-c2ccc(-c3ccccc3)cc2F)cc1-c1ccccc1F
  11%, -3%[18.4 µM]
Cc1ccccc1CN1C(=O)c2ccccc2C1c1nnnn1-c1ccc2c(c1)OCCO2 (stereo not drawn)
  10%, 2%

# Remaining list, next part
# Results follow in this order: StopGo reporter, RE007 growth inh
Cc1cc(-c2ccncc2)n2ncc(-c3ccccc3)c2n1
  0%, -18%
Nc1ncc2[nH]cnc2n1
  -11%&-15%&-3%, -1%[18.4 µM]
CC1C(c2ccccc2)=Nn2c(=O)n(-c3ccccc3)c(=O)n21 (stereo not drawn)
  -1%, -21%
CCc1nc2ccc(C(=O)NCCOc3ccc(OC)cc3)cn2c1N(C)C(=O)COc1ccccc1
  2%, -4%[18.4 µM]
CN1CCN(C(=O)C2Cc3c(-c4cccc(F)c4)ccnc3O2)CC1 (stereo not drawn)
  -12%, -4%
COc1ccc(NC(=O)C2(C)CCN2Cc2ccc(SC)cc2)cc1OC (stereo not drawn)
  ?, -5%
CCOc1c(Br)cc(C(=O)Nc2cccc(S(=O)(=O)N3CCOCC3)c2)cc1OC
  -6%, 0%
COc1ccc(-n2nnnc2C(CCc2ccccc2)N2CCC3(CC2)C(=O)NCN3c2ccccc2)cc1 (stereo not drawn)
  -7%, 21%
CC(C)(C)C(=O)c1c(N)[nH]c(C(=O)c2ccccc2)c1-c1ccc(C(F)(F)F)cc1
  -20%, 25%
COc1ccc(CN2CCCC(C(=O)N3CCCC3)C2)c(OC)c1OC (stereo not drawn)
  -25%, -12%
CCOC(=O)C1(C)CCCN(C(=O)c2ccc(F)c(Cl)c2)C1 (stereo not drawn)
  -15%, -6%
COC(=O)C1=C(c2cc3ccccc3s2)C[C@@H]2CC[C@H]1N2C(=O)NCCNC(C)=O
  -11%, 0%
CCCc1nc2c(s1)CCc1onc(-c3ccc(Br)cc3)c1-2
  -16%, 6%
COc1ccc(OC)c(C(O)c2ncc(-c3cccc(C(F)(F)F)c3)[nH]2)c1 (stereo not drawn)
  -4%, -23%[18.4 µM]
CCCCCCCCN1C(=O)[C@H](CC(=O)NCc2cccs2)C[C@@]2(C(=O)OC)CC(C)(C)CC=C12
  -15%, 4%

# New compounds follow
# Results follow in this order: StopGo reporter, RE007 growth inh
CCOC(=O)[C@@H]1[C@H]2COc3cc(OC)ccc3[C@@H]2N2C(=O)N(c3ccc(Br)cc3)C(=O)[C@]12C
  -22%, 9%
CCCC[C@@H]1CC2=C(C(=O)OC(C)(C)O2)[C@@H](c2ccc(Cl)cc2)O1
  -15%, -7%
Cc1cc(=O)oc2c(CN3CCOCC3)c(O)ccc12
  -36%, -15%
COc1ccc(Cn2cc(CN3CCOCC3)nn2)cc1
  -15%, 7%
O=C(NCc1ccccc1)c1cc(C2CCCN(C(=O)C3CC3)C2)on1 (stereo not drawn)
  24%, 19%[18.4 µM]
CC(C)NC(=O)C1(C)CN(S(C)(=O)=O)CC(=O)N1CCCN1CCOCC1 (stereo not drawn)
  -13%, -6%
CCCCCNC(=O)C(c1ccnc2ccccc12)n1c(=O)c(-c2cc3ccccc3[nH]2)nc2ccccc21 (stereo not drawn)
  12%, 7%
CCc1nc2c(OCc3cccc(Cl)c3)cccn2c1N(C)C(=O)c1ccco1
  ?, -16%
O=C1NC[C@@H](CCCCN2CCN(CC3CCCCC3)C(=O)C2=O)N(CCC2CCCCC2)C1=O
  39%[activator], 2%
CC(C)C[C@@H](COCc1ccc(Cl)cc1)N1CCN(C(=O)c2ccc(Cl)cc2Cl)CCC1=O
  -17%, -10%
Cc1ccccc1-c1cnc(C(O)c2ccc(-c3ccccc3)cc2)[nH]1 (stereo not drawn)
  2%, -10%[18.4 µM]
c1ccc2c(c1)Sc1cnccc1N2CC1CO1 (stereo not drawn)
  -21%, ?
CN(CC(=O)Nc1c(Cl)cccc1Cl)C(=O)CNC(=O)c1sc2ccccc2c1Cl
  -17%, -7%
CC(C)(C)c1ccc(C(=O)N2CCC2(C)C(=O)NCc2cccs2)cc1 (stereo not drawn)
  ?, 1%[18.4 µM]
C[C@H]1CN([C@@H](C)CO)C(=O)CCCn2nncc2CO[C@H]1CN(C)S(=O)(=O)c1ccc(-n2cccn2)cc1
  3%, 11%

# Of the compounds above, 3 contain a tert-butyl group:
# Results follow in this order: StopGo reporter, RE007 growth inh
Cc1ncccc1C(=O)N1CCCC(c2cc(C(=O)Nc3ccc(C(C)(C)C)cc3)no2)C1 (stereo not drawn)
  0%, 9%
CC(C)(C)C(=O)c1c(N)[nH]c(C(=O)c2ccccc2)c1-c1ccc(C(F)(F)F)cc1
  -20%, 25%
CC(C)(C)c1ccc(C(=O)N2CCC2(C)C(=O)NCc2cccs2)cc1 (stereo not drawn)
  ?, 1%[18.4 µM]

# (continued)
SMILES,StopGo reporter,RE007 growth inh
COC(=O)C1=CN(c2ccc(C)cc2)C(N)=C(C#N)C1c1ccc(OC)cc1 (stereo not drawn),?,2%
Cc1ccsc1C(=O)OCC(=O)NCc1cccs1,51%[activator],-6%
CN(C)C(CNC(=O)C1CC(=O)N(c2cccc(C(F)(F)F)c2)C1)c1ccccc1 (stereo not drawn),6%,-10%
Cc1ccc(S(=O)(=O)N2C[C@H]3C(=O)C[C@@H](c4ccccc4F)N(S(=O)(=O)c4ccc(C)cc4)[C@H]3C[C@H]2c2cccc3ccccc23)cc1,-6%,2%
O=C1Nc2ccccc2N=C(c2ccc3c(c2)OCO3)C1N(CCc1ccccc1)C(=O)CSc1ncccn1 (stereo not drawn),30%[activator],-8%
COc1cccc(NC(=O)C2(C)CCN2C(=O)C2CCCCC2)c1 (stereo not drawn),6%,-3%
CCc1nc2c(OCCn3cccc3)cccn2c1N(C)C(=O)c1ccc(OC)cc1,-12%,-3%
O=S1(=O)C[C@@H](N2CCC[C@@H]2CO)[C@H](COCc2ccccc2)N1,-7%,12%
NC(=O)CC(NC(=O)c1ccccc1)C(=O)O (stereo not drawn),-11%,12%
COc1cccc(C(O)c2ncc(-c3ccc(Cl)cc3)[nH]2)c1 (stereo not drawn),-4%,-11%

# Profiles, looked up by structure. Order of screens: StopGo reporter	RE007 growth inh
# Profile of Cc1ccccc1CN1C(=O)c2ccccc2C1c1nnnn1-c1ccc2c(c1)OCCO2 (stereo not drawn) = 10%	2%
# Profile of CNc1cncc(-c2ccc(CN3CCOCC3)cc2)n1 = 47%[activator]	1%
# Profile of CSc1ccc(Cn2c(C)c(C(=O)NCc3ccccc3C(F)(F)F)sc2=O)cc1 = -17%	-19%[18.4 µM]
# Profile of CCCC[C@@H]1CC2=C(C(=O)OC(C)(C)O2)[C@@H](c2ccc(Cl)cc2)O1 = -15%	-7%
# Profile of CN1CCN(C(=O)C2Cc3c(-c4cccc(F)c4)ccnc3O2)CC1 (stereo not drawn) = -12%	-4%

# Next section:
SMILES,StopGo reporter,RE007 growth inh
Cc1nc2ccc(C(=O)N(C)Cc3ccco3)cn2c1N(C)CC1CCCCC1,-22%,-18%
CCN(CC)C(=O)C1=C(C)N(CCCOC)C(=O)C(CC(=O)NCc2ccco2)C1 (stereo not drawn),-11%,6%
CCN(C)C1CN(Cc2cn(CCCC(=O)OC)nn2)S(=O)(=O)C1 (stereo not drawn),-20%,1%
COc1ccc2c(CC(=O)Nc3ccc4nc(N5CCOCC5)sc4c3)coc2c1,51%[activator],8%
CCCCNC(=O)C1(C)CCCCN1C(=O)c1c(Cl)cccc1Cl (stereo not drawn),-5%,-12%[18.4 µM]
CC(C)C[C@H]1CN([C@@H](Cc2ccccc2)CN2CCC[C@@H]2CN2C(=O)C(=O)NC[C@@H]2Cc2ccc(O)cc2)C(=O)C(=O)N1CCc1ccccc1,-15%,-8%
COc1ccc(NC(=O)CN2C(=O)NC(C)(c3ccccc3)C2=O)cn1 (stereo not drawn),7%,15%
Cc1cccc(C)c1-n1nnnc1C(c1ccnc2ccccc12)N1CCN(CC(=O)NC(C)C)CC1 (stereo not drawn),-21%,-17%
C[C@H]1CN([C@@H](C)CO)C(=O)CCCn2nncc2CO[C@@H]1CN(C)Cc1ccc2c(c1)OCO2,-13%,-5%
CCCCNC(=O)c1ccc2nc(CC)c(N(C)Cc3cccs3)n2c1,0%,-23%

# Going on with the list:
SMILES,StopGo reporter,RE007 growth inh
CN(C)c1ccc(-c2csc(C(O)c3ccc(F)c(F)c3)n2)cc1 (stereo not drawn),21%,-7%
CCOC(=O)CN1C(=O)N[C@@H](CCc2ccccc2)[C@@H](C(=O)OC)[C@H]1C,-18%,-15%
CC1(C)ON=C(c2ccc(C(F)(F)F)cc2)NC1=O,-7%,2%[18.4 µM]
COc1cccc(-c2cc3nc(NCc4ccc(C)cc4C)n(C)c(=O)c3s2)c1,-18%,-3%
Cc1nc(C(F)(F)F)ccc1C(=O)N1CCC1(C)C(=O)NS(=O)(=O)c1ccc(F)cc1F (stereo not drawn),-12%,5%[18.4 µM]
CCCNC(=O)C1(C)CCCN(C(=O)CN2C(=O)c3ccccc3C2=O)C1 (stereo not drawn),-3%,4%[18.4 µM]
CC(=O)NC(c1ccc(F)c(F)c1)c1nc(-c2cccc(F)c2)cs1 (stereo not drawn),-6%,-17%
COc1ccc(CNC(=O)c2sc(=O)n(Cc3ccc(C)cc3)c2C)cc1OC,25µM*,-3%[18.4 µM]
COc1ccc(Cl)c(-c2cc(C(=O)Nc3ccc(C)c(NS(C)(=O)=O)c3)[nH]n2)c1,?,20%
OC[C@H]1O[C@@H](Oc2ccc(O)cc2)[C@H](O)[C@@H](O)[C@@H]1O,0%&-5%,12%

# Next results:
SMILES,StopGo reporter,RE007 growth inh
C=CCC[C@H](CCCCC)OC(=O)/C=C/[C@H](O)[C@@H](O)C[C@H](O)CC=C,-27%,-2%
O=C1C=C(OCCCl)CC(c2cccc(Cl)c2)O1 (stereo not drawn),-3%,-8%
COc1ncccc1C(=O)N1CCCC(C(=O)Nc2cccc(-c3ccc(F)cc3)c2)C1 (stereo not drawn),?,4%
O=C(Cc1cccc(NC(=O)C2CCCN(C(=O)CCc3ccccc3)C2)c1)Nc1ccc(C(=O)N2CCCCC2)cc1 (stereo not drawn),-16%,-12%
CC(=O)N(C)c1ccc(N2CCOCC2)c2c1C(=O)c1ccccc1C2=O,-6%,-5%
Cc1c(Br)cccc1NC(=O)C1(C)CCN1CCc1ccccc1 (stereo not drawn),?,-18%
CC1(C(=O)NCc2cccnc2)Cc2c(-c3cccc(C(F)(F)F)c3)ccnc2O1 (stereo not drawn),?,0%
CC(=O)Nc1cccc(-c2cc(NC=O)c3ncc(-c4cccc(C(C)=O)c4)n3c2)c1,-7%,5%[18.4 µM]
COc1cc(NC(C)=O)c2ncccc2c1Br,-14%,8%
COc1ccc(Cl)cc1CNC[C@H]1O[C@@H](n2ccc(N)nc2=O)[C@H](O)[C@@H]1O,-3%,10%

# Further compounds:
SMILES,StopGo reporter,RE007 growth inh
COc1ccc(C(O)c2nc(-c3cccs3)cs2)cc1 (stereo not drawn),-5%,-18%
COc1ccc(OC)c(NC(=O)C(C)OC(=O)c2cc3ccccc3[nH]2)c1 (stereo not drawn),?,3%
OCC[C@@H]1C[C@H](O)[C@@H](O)[C@]2(OCc3cc(C(F)(F)F)ccc32)O1,-9%,0%
CC1C(=O)N(Cc2cn(CCC3OCCO3)nn2)CCS(=O)(=O)N1Cc1ccc(-c2ccc(F)cc2)cc1 (stereo not drawn),?,0%
OCCN1CCN(c2cnc(-c3ccsc3)cn2)CC1,29%,-1%
O=C(NCc1ccncc1)c1ccc(OCc2ccccc2)cc1,-21%,14%
Cc1ccccc1CC1(C)C(=O)Nc2ccc(S(=O)(=O)NC3CCCCC3)cc21 (stereo not drawn),40%[activator],14%
Cc1noc(C)c1-c1ccc(C(=O)NCc2cccnc2)c2occc12,-18%,-9%[18.4 µM]

# Screening results as filed in PubChem BioAssay.
